# miR-21 FLuc = qHTS Assay for Modulators of miRNAs and/orActivators of miR-21. HeLa miR-21 FLuc reporter, luciferase, 48 h. Potency, µM (titrated, usually from 38.3 µM), for inactives: at the highest dose reporter change, positive = more light. 340,000 tested, under 10 active. AID 2288, 2010; active = well fitted rising curve with a large enough effect; inconclusive = small, poorly fitted or top-dose-only effect; inactive = no such curve, though single readings can be large or run the other way;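 note: % of control where 0% means no effect; miR-21 action dims this reporter so a rising signal means less miR-21 action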
#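 HeLa cells endogenously expressing miR-21, stably carrying CMV-driven firefly luciferase with a downstream miR-21 binding site, 2000 cells/well. Titrations up to approximately 40 uM, 48 hours; luciferase luminescence read.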
# Rango complex inh = qHTS Assay for Inhibitors of Rango (Ran-regulated importin-beta cargo) - Importin beta complex formation; Rango CFP/YFP FRET sensor + importin beta, 45 min; Potency, µM (top dose mostly 92.2 µM), for the others: top-dose inhibition of complex formation; 0.031% of 340,000 active; AID 540263, 2011; active = rising FRET ratio curve, often small or poorly fitted; inconclusive = mostly compound fluorescence or quenching in the first reads; inactive = flat curves in all reads;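 note: potency is the fitted concentration of half-maximal effect; 0% = DMSO wells and 100% = buffer wells lacking importin beta; nearly all actives have a fitted effect of over 15% in size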
#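 FRET biosensor Rango (snurportin 1 IBB between N-terminal EYFP and C-terminal Cerulean), 50 nM in PBS/1 mM DTT/0.02% Tween-20/0.1% BSA, preincubated 5 min RT with compound; 0.125 microM importin beta added, 45 min RT, CFP/YFP FRET ratio read.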
# GLA inh pH 4.5 = qHTS Assay for Inhibitors of Human alpha-Galactosidase at pH 4.5. Alpha-galactosidase A (Homo sapiens), P06280. purified enzyme, 4-MU-alpha-Gal fluorescence, pH 4.5. activity change, negative = inhibition, % at 105 µM. 230,000 tested, under 10 active. AID 1467, 2008; inconclusive = small, poorly fitted or top-dose-only inhibition, or a rising curve; inactive = flat fitted curve, though single readings scatter; no compound was filed as active;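 note: 0% = full activity with enzyme and -100% = basal without enzyme; dose as in the result columns while the protocol names 77 µM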
# Target sequence (P06280 whole entry, looked up): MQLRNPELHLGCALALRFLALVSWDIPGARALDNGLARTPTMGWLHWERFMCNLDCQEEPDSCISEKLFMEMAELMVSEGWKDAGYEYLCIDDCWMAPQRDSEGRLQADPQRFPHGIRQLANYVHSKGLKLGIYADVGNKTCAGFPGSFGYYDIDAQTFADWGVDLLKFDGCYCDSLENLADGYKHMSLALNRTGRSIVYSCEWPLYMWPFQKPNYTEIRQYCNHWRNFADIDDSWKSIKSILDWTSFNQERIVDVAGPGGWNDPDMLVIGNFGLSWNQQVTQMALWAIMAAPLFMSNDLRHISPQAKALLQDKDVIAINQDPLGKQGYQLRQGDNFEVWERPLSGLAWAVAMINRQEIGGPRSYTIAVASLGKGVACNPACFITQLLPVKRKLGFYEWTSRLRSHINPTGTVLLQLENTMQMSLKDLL
# Rango dissoc inh = qHTS Assay for Inhibitors of RanGTP induced Rango (Ran-regulated importin-beta cargo) - Importin beta complex dissociation | Biochemical FRET Rango-importin beta, RanGTP-induced dissociation | 0.071% of 340,000 active | AID 540253, 2011 | Potency, µM (doses to about 46.1 µM), inactives show top-dose activity change, negative = inhibition; active means falling FRET ratio curve, often poorly fitted, with flat reads before Ran was added; inconclusive means other falling curves, or compound fluorescence or quenching; inactive means flat or rising ratio curve;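 note: potency is the fitted concentration of half-maximal effect; % of control where 0% means no effect; nearly all actives have a fitted effect of over 45% in size; -100% = wells without RanGTP and RCC1; the record marks most hits as doubtful in a second field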
#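 Rango FRET biosensor (snurportin-1 IBB flanked by N-terminal EYFP and C-terminal CFP10) at 0.1 uM, with 0.25 uM importin beta in PBS, 1mM DTT, 0.02% Tween-20, 0.1% BSA. 0.6 uM Ran, 2mM GTP and 0.2 uM RCC1 were then added for 45 min at room temperature. Inhibition read as loss of FRET rise.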
# * marks the source's active call; other numbers are inactive results; ? = inconclusive; . = no result given.
SMILES,miR-21 FLuc,Rango complex inh,GLA inh pH 4.5,Rango dissoc inh
COc1ccc(N=C2C(=Nc3ccc(OC)cc3)N(c3ccc(OC)cc3)C(=S)N2C)cc1,0.1%,3.5%,3.3,-7.1%
COc1ccc(NC(=O)c2ccc(S(=O)(=O)N3CC(C)CC(C)C3)cc2)cc1S(N)(=O)=O (stereo not given),.,-3.0%,.,11.8%
CCOc1cc(/C=C2\N=C3CCCCCN3C2=O)ccc1O,-68.1%,?,-27.3,-16.9%
COC(=O)CSc1nnc2n(-c3ccc(OC)cc3)c(=O)c3c4c(sc3n12)CCCCC4,-4.0%,-0.3%,2.4,15.3%
COc1ccc(N2CCN(C(=O)CN3C(=O)NC4(CCCc5ccccc54)C3=O)CC2)cc1 (stereo not given),.,2.6%,.,0.3%
CCOCCc1nnc(NC(=O)CCS(=O)(=O)c2ccccc2)s1,14.4%,6.4%,.,0.0%
O=C(O)C1CC=CCC1C(=O)NCCCN1CCCC1=O (stereo not given),-0.2%,-1.2%,.,-0.8%
C=CCn1c(N)cc(=O)nc1SCC(=O)NC(C)c1ccccc1 (stereo not given),-3.6%,4.9%,5.2,0.8%
NC(=O)c1ccc(NC(=O)CN2CCN(c3ccc(Cl)cc3)CC2)cc1,8.3%,-4.1%,-4.2,-6.6%
COc1ccc(OC)c(C2C(C(C)=O)=C(O)C(=O)N2CCc2ccc(OC)c(OC)c2)c1 (stereo not given),-22.4%,4.5%,4.2,-10.7%
COc1cccc(CN(C)C(=O)c2cc(COc3ccc4ncccc4c3)on2)c1,26.2%,-4.3%,-4.0,7.1%
CC(Cl)c1cc(-c2ncc(C(F)(F)F)cc2Cl)no1 (stereo not given),-3.8%,9.7%,5.9,12.8%
CCOc1ccccc1NC(=O)CCNC(=O)c1ccco1,-6.3%,-1.5%,.,0.7%
Cn1cc(Br)c(C(=O)NC(=S)N2CCN(c3ccccn3)CC2)n1,-0.9%,-1.3%,5.4,3.3%
COc1cccc2c1C(CCCC(=O)O)CCC2 (stereo not given),.,3.0%,.,0.9%
Nc1nc(Nc2ccccc2)nc(NC2CCCCC2)c1[N+](=O)[O-],4.6%,0.4%,.,19.0%
c1ccc2[nH]c(CCCc3nc4ccccc4[nH]3)nc2c1,-8.6%,-0.5%,.,-11.1%
CCOc1ncccc1C(=O)Nc1ccc2c(c1)OCCCO2,.,-1.1%,.,-13.3%
CN(C)S(=O)(=O)c1ccc(C(=O)Nc2ccn(C)n2)cc1,-13.1%,0.4%,.,29.9%
CN(CC1CCCO1)S(=O)(=O)c1ccc(C(=O)Nc2nnc(-c3ccccc3)o2)cc1 (stereo not given),26.0%,-1.9%,.,-0.3%
N#C/C(=C(/O)COC(=O)c1ccc(O)cc1)c1nc2ccccc2[nH]1,-1.6%,-6.3%,-6.3,?
O=C(CN1CCCCCC1=O)OCc1ncc(-c2ccccc2)o1,-9.6%,1.8%,1.5,-5.6%
Cc1ccc(C)c(OCC(=O)NNC(=O)c2ccc(=O)[nH]c2)c1,.,-2.5%,.,-14.4%
CC(C)(C)c1ccc(C(=O)N2CCC(C(=O)NCc3ccco3)CC2)cc1,-34.6%,5.5%,-0.5,16.2%
Cc1ccc(-n2nc3c(=O)n(CCCC(=O)NCCN4CCN(C)CC4)nc(C)c3c2C)cc1,2.4%,4.1%,.,-5.4%
# Remaining list, next part
SMILES,miR-21 FLuc,Rango complex inh,GLA inh pH 4.5,Rango dissoc inh
O=C(O)c1ccc(CN2C(=O)c3cccc4c([N+](=O)[O-])ccc(c34)C2=O)cc1,0.5%,?,.,?
O=C(COC(=O)C1CC2C=CC1C2)Nc1ccc([N+](=O)[O-])cc1 (stereo not given),.,5.0%,.,-5.5%
O=C(CNS(=O)(=O)c1ccc(Cl)cc1)NC1CCCCC1,.,3.3%,.,-9.6%
COc1cccc(CNS(=O)(=O)c2cc3c4c(c2)CCC(=O)N4CCC3)c1,.,4.5%,.,-19.2%
COC(=O)/C(=N/Nc1ccc(C)cc1)N1CCCc2ccccc21,-10.4%,-2.2%,-0.2,-3.8%
O=C1N=C(N2CCOCC2)S/C1=C\c1ccc(OS(=O)(=O)c2ccccc2)cc1,0.4%,1.0%,-19.5,17.6%
O=S(=O)(c1ccccc1)c1nc(-c2ccc(Cl)cc2)oc1NCCCN1CCOCC1,.,-0.7%,.,0.9%
CC(=O)Oc1ccc(-c2cccc(C(=O)Oc3ccccc3)c2)cc1,-2.8%,?,0.0,2.1%
Cc1ccc(S(=O)(=O)NCCNC(=O)c2nonc2N)cc1,2.9%,4.6%,-9.8,-5.4%
Fc1ccc(OCc2nc3ccccc3s2)cc1,-57.9%,-2.3%,-6.2,-9.2%
O=C1CC(NNc2nc3ccccc3s2)C(=O)N1c1ccc(F)cc1 (stereo not given),-6.9%,?,-13.7,-3.6%
COC(=O)c1ccc(Oc2nc(Nc3ccccc3)nc(N(C)C)n2)cc1,0.5%,9.1%,-1.5,17.5%
CCN(CC)S(=O)(=O)c1ccc(C(=O)Nc2c3c(nn2C(C)(C)C)CS(=O)(=O)C3)cc1,2.2%,-4.4%,-1.3,4.2%
N#Cc1cccc(C(=O)OCC(=O)N2CCCc3ccccc32)c1,.,-4.9%,.,-0.2%
CCOC(=O)c1c(C)[nH]c(C(=O)COC(=O)c2oc3ccc(OC)cc3c2C)c1C,0.6%,-0.1%,13.1,-7.5%
Cc1nnc2n(c1=O)C(CS(=O)(=O)c1ccccc1)CS2 (stereo not given),-0.7%,-3.9%,0.6,10.7%
CC(=O)NCC(=O)N1CCC(n2nccc2NC(=O)CCCc2ccccc2)CC1,-19.7%,-1.1%,.,-3.9%
CCOC(=O)C(=N/O)/C(C)=N/NC(=O)C(=O)Nc1cc(Cl)ccc1Cl,8.9%,-0.4%,-1.2,?
COC(=O)c1ccc(-c2noc(CN(Cc3nccn3C)C(C)C)n2)cc1,3.1%,0.2%,-5.5,-8.4%
CC1=[N+](C)c2c(ccc3cccnc23)C1(C)C,?,?,0.8,?
Cc1ccc(Nc2nc(Oc3ccc(OCc4ccccc4)nn3)nc(N3CCOCC3)n2)cc1,-4.8%,-0.9%,-3.6,-7.7%
CCCOc1ccc(CSc2nnc(CCC)n2N)cc1,-7.6%,?,-0.1,2.5%
C=C1CCN([C@@H](CC(C)C)C(=O)NCCC(C)C)S(=O)(=O)c2ccccc21,.,1.0%,.,1.8%
CCCn1nc(C(=O)NCC2COc3ccccc3O2)c2ccccc2c1=O (stereo not given),.,-1.9%,.,-1.5%
O=C(O)CC1CCC1CC(=O)O (stereo not given),.,-2.6%,.,-2.2%
# Next part.
SMILES,miR-21 FLuc,Rango complex inh,GLA inh pH 4.5,Rango dissoc inh
CCC(C)(C)n1nnnc1C(c1ccccc1)N1CCc2ccccc2C1 (stereo not given),-3.1%,-2.9%,-0.6,14.8%
Cc1cc(C)n2nc(CC(=O)NNC(=O)c3ccccc3Cl)nc2n1,-0.4%,0.7%,.,-3.0%
COc1ccc(/C(C)=N/NC(=O)Cc2ccc(Cl)cc2)cc1,-4.1%,0.2%,.,17.0%
COc1ccc(/C=C(/NC(=O)c2ccc(Br)cc2)C(=O)N2CCOCC2)cc1,-4.6%,-0.5%,.,5.5%
Cc1ccc(CC(=O)Nc2ccc(F)c([N+](=O)[O-])c2)cc1,-4.2%,?,-3.7,-0.8%
C=CCn1c(CSc2nc3ccccc3s2)nnc1SCC(=O)OCC,0.1%,1.1%,-5.2,-2.6%
CSc1cccc(CN(C)C(=O)C2CCC(=O)N(CCCN3CCCC3=O)C2)c1 (stereo not given),-1.1%,2.1%,.,-15.5%
CCOC(=O)CNC(=O)CSc1nnc(C)c(=O)[nH]1,-0.7%,-4.5%,3.3,6.7%
O=C(COc1ccc(Br)cc1)Nc1nnc(-c2cccnc2)s1,-0.3%,?,-5.9,0.4%
NNC(=O)c1cc2cc(OC(F)(F)F)ccc2[nH]1,5.8%,0.1%,-16.8,0.3%
COC(=O)C=C1CCC2C3CCC4=CC(=O)C(Br)CC4(C)C3C(=O)CC12C (stereo not given),.,?,.,-5.9%
Cc1ccc(S(=O)(=O)CC(=O)Nc2nc3ccccc3s2)cc1,-5.2%,2.3%,.,-8.0%
Cc1ccc(Nc2nc(N)c([N+](=O)[O-])c(NCCO)n2)cc1,-31.6%,-0.1%,-8.8,0.8%
Cc1ccccc1NC(=O)NC1CCCCC1C (stereo not given),-1.2%,4.3%,-0.7,-1.6%
Cc1cc(C)nc(NS(=O)(=O)c2ccc(NC(=S)NC(=O)C3CCCC3)cc2)n1,-7.0%,-2.1%,7.5,0.5%
COC(=O)C1=C(N)Oc2cc(C)n(CC3CCCO3)c(=O)c2C1c1ccc(Cl)cc1 (stereo not given),4.5%,-2.9%,-10.7,-11.4%
COc1cccc(NC(=O)Cn2cnc3sc(C)c(S(=O)(=O)N4CCCCC4)c3c2=O)c1,0.8%,?,-0.2,-2.9%
CCOC(=O)c1c(C)[nH]c(C(=O)COC(=O)COc2ccccc2C=O)c1C,-12.5%,-2.3%,0.1,2.2%
COc1ccc(-c2cc(C(F)F)n3ncc(C(=O)Nc4c(C)n(C)n(-c5ccccc5)c4=O)c3n2)cc1,2.6%,-0.2%,-2.0,-0.8%
COc1ccccc1/C=C/C(=O)OCC(=O)NCc1ccc2c(c1)OCO2,.,0.4%,.,43.7%
CS(=O)(=O)c1ccc2nc(NC(=O)Nc3ccc(Cl)cc3)sc2c1,-7.8%,-0.3%,-2.2,0.3%
Cc1cc(C(=O)OCC(=O)NC(C)c2ccc(F)cc2)c(C)o1 (stereo not given),.,0.4%,.,-8.2%
C=CCN(CC=C)c1nc2ccccc2nc1C(C#N)C(=O)OCCOC (stereo not given),-4.6%,?,4.5,?
Cn1ccc2c([N+](=O)[O-])cccc2c1=O,-8.3%,0.1%,-7.4,-6.7%
CCCn1c(SCc2nc3ccccc3s2)n[nH]c1=O,-65.4%,-2.2%,-3.0,6.0%
# Next part
SMILES,miR-21 FLuc,Rango complex inh,GLA inh pH 4.5,Rango dissoc inh
COC(C[C@H]1O[C@@H]1[C@@H](O)COCc1ccccc1)OC,1.0%,1.5%,-2.5,-5.4%
Clc1ccc(CSc2nnc([C@@H]3CCCN3)o2)cc1Cl,-22.1%,1.1%,4.9,-9.0%
S=c1[nH]c(-c2ccccc2)cn1/N=C/c1cccs1,-9.6%,?,-12.1,?
CCn1c(CNc2ccc(Cl)cc2)nnc1SCc1ccc(Cl)cc1,2.0%,1.5%,-10.7,5.5%
N#C/C(=C\c1cccnc1)C(=O)Nc1cccc(Cl)c1,0.0%,?,1.1,16.0%
COc1ccc(S(=O)(=O)N2CCOCC2)cc1NC(=O)c1ccc(S(=O)(=O)N(C)c2ccccc2OC)cc1,.,-0.6%,.,-12.2%
O=[N+]([O-])c1ccc(C=NNc2ccccc2)cc1,.,15.4%,.,-3.9%
CC1CC(C)CN(CCCNS(=O)(=O)c2ccc3c(c2)CCN3C(=O)C2CC2)C1 (stereo not given),-1.6%,-2.1%,.,8.6%
COC(=O)c1ccc(CNC(=O)c2ccc(S(=O)(=O)N(C)c3ccccc3OC)cc2)cc1,.,0.7%,.,3.3%
c1ccc2cc(CNCc3cccc4ccccc34)ccc2c1,-8.2%,9.2%,-1.3,-9.9%
C#CCOCCOCCOCCNc1nc(N2CCN(C(=O)CCCCCCCCCCNC(=O)[C@H](CCCCN)n3cc(C)nn3)CC2)nc(N2CCN(C(=O)CCCCCCCCCCNC(=O)[C@H](CO)n3cc(CCCSC)nn3)CC2)n1,.,6.1%,.,30.6%
C/C(=N\NC(=O)c1ccco1)c1cc2ccccc2o1,-54.1%,2.0%,-2.8,1.9%
CC1CCN(C(=S)NC2CCCCC2)CC1,-18.4%,-4.9%,-3.8,4.1%

# A portion of the library; the hit share may differ from the screen's.
